Screening data as filed in PubChem.
RanGTP-Impb inh = disruptors of Ran-importin-beta complex formation – biochemical, FRET, CFP-Ran, YFP-importin-beta, homogeneous, primary screen | cell-free CFP-Ran/YFP-importin-beta FRET ratio | inhibition, % (concentration not given with the values) | actives 1.1% (n = 300,000);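 active = most replicates above 15%; inconclusive = exactly half above 15%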;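 also: 0% = DMSO wells and 100% = Ran loaded with GDP instead of GTP; wells of about 40 µL received 100 nL stock; the first replicate is given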
MLL AF4-AF9 inh = inhibitors of human MLL-AF4/AF9 interaction; inhibition, % at 10 µM; actives 0.47% (n = 350,000); AlphaScreen, biotin-AF4 peptide binding to FLAG-AF9; P42568;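 active = every replicate reaching a set inhibition limit, whatever the replicate mean, cut at about 25% in these data; inconclusive = mean inhibition reaches that limit but some replicates miss it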;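 also: 0% = plate neutral control median and 100% = total signal loss; the record names both 10 and 1 µM as test concentration; the first replicate is given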
Target sequence (P42568 whole entry, looked up): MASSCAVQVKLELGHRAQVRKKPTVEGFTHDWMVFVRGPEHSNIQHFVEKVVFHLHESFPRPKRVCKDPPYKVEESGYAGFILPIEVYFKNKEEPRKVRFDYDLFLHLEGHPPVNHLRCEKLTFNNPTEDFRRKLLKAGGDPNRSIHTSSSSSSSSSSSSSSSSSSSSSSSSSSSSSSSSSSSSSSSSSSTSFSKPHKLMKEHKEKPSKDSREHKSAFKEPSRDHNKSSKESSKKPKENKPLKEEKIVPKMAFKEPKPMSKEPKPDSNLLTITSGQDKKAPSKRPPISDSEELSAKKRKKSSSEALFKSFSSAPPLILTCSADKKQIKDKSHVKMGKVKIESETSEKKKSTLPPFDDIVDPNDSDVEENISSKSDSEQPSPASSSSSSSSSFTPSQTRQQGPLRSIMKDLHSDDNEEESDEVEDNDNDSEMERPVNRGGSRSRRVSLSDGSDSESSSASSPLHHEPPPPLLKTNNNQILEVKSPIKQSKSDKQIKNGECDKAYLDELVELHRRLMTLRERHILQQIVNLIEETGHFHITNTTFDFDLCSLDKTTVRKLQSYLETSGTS
UCH37 inh = human UCH37 deubiquitinating enzyme inhibition | Q9Y5K5 | purified proteasome/UCH37, Ub-AMC cleavage fluorescence | inhibition, % (test concentration not listed) | actives 0.33% (n = 330,000) | AID 588478;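 active = mean of two replicates above 20%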;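 also: 0% = compound-free wells with enzyme and 100% = wells lacking proteasome; stock transfer was 100 nL into about 20 µL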
Target sequence (Q9Y5K5 whole entry, looked up): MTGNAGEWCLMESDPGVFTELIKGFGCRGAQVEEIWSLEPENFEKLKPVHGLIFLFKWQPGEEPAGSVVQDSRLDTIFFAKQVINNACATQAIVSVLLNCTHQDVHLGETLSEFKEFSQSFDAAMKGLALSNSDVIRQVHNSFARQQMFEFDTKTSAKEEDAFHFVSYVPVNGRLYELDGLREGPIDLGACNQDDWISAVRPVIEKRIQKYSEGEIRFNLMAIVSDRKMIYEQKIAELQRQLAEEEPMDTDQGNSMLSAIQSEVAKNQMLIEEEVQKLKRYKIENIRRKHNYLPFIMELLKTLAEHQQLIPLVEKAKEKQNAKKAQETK
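Test system – human UCH37 enzyme supplied as purified proteasome complex · Incubation – 30 min preincubation with enzyme, 25 min cleavage at room temperature · Detection – AMC fluorescence from Ub-AMC cleavage, excitation 355 nm, emission 460 nm · Benchmarks – no-proteasome wells (full inhibition) and compound-free wells (no inhibition)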
E coli growth = E. coli growth inhibition | Escherichia coli growth, OD600, 23 h; active compounds read low | OD600 absorbance (concentration not given with the values) | actives 0.21% (n = 330,000);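 active = OD600 absorbance below the run mean of sample wells minus 3.6 SD, in any replicate, cut at about 0.56 in these data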;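 also: stock transfer was 300 nL into about 60 µL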
FGF22 binding = shifts melting point of recombinant human FGF22. recombinant FGF22 thermal shift, SYPRO orange fluorescence; percent of sucrose octasulfate shift, DMSO zero. actives 1.5% (n = 340,000). calls only at 9.99 µM;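 active = melting point raised past a set limit in the mean and every replicate; inconclusive = no clear call; three in four hits are not shown here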
Target sequence (Q9HCT0 whole entry, looked up): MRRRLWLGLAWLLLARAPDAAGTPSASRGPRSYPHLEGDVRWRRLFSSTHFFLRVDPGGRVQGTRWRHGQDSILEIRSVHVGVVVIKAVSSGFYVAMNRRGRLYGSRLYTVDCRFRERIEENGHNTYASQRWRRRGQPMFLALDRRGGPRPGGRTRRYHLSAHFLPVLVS
Vif TR-FRET = inhibitors of Vif binding to APOBEC3G peptide, primary screen, biochemical, TR-FRET, GST-Vif 1-94, biotin-A3G peptide, dose response retest (AID 1117319). inhibition, %; hits with a dose series show IC50 in µM. actives 0.57% (n = 260,000). TR-FRET GST-Vif / biotin-A3G peptide binding; higher % means a stronger effect; test concentration not given here; strong numbers were not always called active;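 active = above the screen mean plus three standard deviations and confirmed in dose response; inconclusive = results disagree or hit not tested in dose response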;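 also: Vif residues 1-94 fused to GST binding biotinylated APOBEC3G peptide 110-148; 0% = full assay without inhibitor and 100% = GST in place of GST-Vif; retest series ran down from 100 µM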
HNF4A DNA FP = change in binding of human HNF4 alpha to DNA | P41235 | AID 1224865 | HNF4a-FITC DNA binding, fluorescence polarization, 1 h | activity change, % at 10 µM | actives 0.3% (n = 360,000); in the data active = activity change above about 30%, passing the limit was not always enough;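 also: controls were the assay level and a saturating level of protein; the project sought stronger binding though the title names inhibitors; some compounds called inactive have numbers as strong as hits; positive values seem to mean higher polarization but the record does not say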
* = called active by the depositor; i = inactive; ? = inconclusive; . = no result given; & = joins results of further samples. A portion of the library. The share of hits here may be higher or lower than overall.

mol,MLL AF4-AF9 inh,Vif TR-FRET,UCH37 inh,E coli growth,RanGTP-Impb inh,FGF22 binding,HNF4A DNA FP
O=C(CN1C(=O)C2CC=CCC2C1=O)Nc1nccs1 (centres undefined),.,-1%,1.6,0.7,0.3,.,-1.1
CCN1C(=O)C(CC(=O)Nc2ccc(OC)cc2)N(CCc2ccc(F)cc2)C1=S (centres undefined),1.1,-9%,2.0,0.69,0.8,i,-1.6
CCc1cc2ccccc2nc1SCC(=O)Nc1cc(OC)c(OC)cc1C(=O)O,.,.,2.0,.,-1.3,.,0.6
Cc1ccc([C@H]2C[C@@H](O)[C@H](n3cc(COC(=O)c4ccccc4)nn3)CN2CC2CCCCC2)cc1,-9.1,.,.,.,.,i,-2.6
CC(C)N(CCNC(=O)c1oc(=O)c2ccccc2c1-c1ccccc1)Cc1ccco1,-5.3,-3%,1.7,0.68,0.8,i,1.5
CC(=O)CN1Cc2ccccc2/C1=N\C(=O)Nc1ccccc1,.,-5%,.,.,1.5,.,2.5
Cc1nnc2ccc(N3CCOCC3)nn12,.,26%,-1.0,0.68,1.8,.,-0.2
CCC(C)C(CO)NCCCn1cnc2c(SC)ncnc21 (centres undefined),0.9,-6%,.,.,.,i,1.9
COc1ccccc1NC(=O)CCN1CCN(Cc2ccccc2)CC1,3.8,-1%,2.8,0.68,0.0,i,-3.8
CCOC(=O)N1CCN(C(=O)c2cc(COc3ccc(F)cc3F)on2)CC1,-3.7,3%,5.0,0.67,0.3,i,2.8
O=C(NCCN1CCCC1)C1CCC(=O)N(CCCN2CCOCC2)C1 (centres undefined),-2.1,.,-3.7,0.73,?,i,-3.4
CC1CN(C(=O)CCN2C(=O)c3ccccc3C2=O)CC(C)O1 (centres undefined),.,-2%,0.8,0.74,1.4,.,0.3
NS(=O)(=O)c1ccc(NC(=O)COC(=O)c2c3c(nc4ccccc24)/C(=C\c2ccc4c(c2)OCO4)CCC3)cc1,-20,-2%,-94,0.71,.,i,-32
Cc1ccc(OCC(=O)NC2CCS(=O)(=O)C2)c([N+](=O)[O-])n1 (centres undefined),-8.9,-6%,2.8,0.7,0.9,i,-0.2
O=C(CN1CCSC1=NCc1ccccc1)c1ccc(Cl)cc1,.,?,0.2,0.68,0.1,.,-0.4
OCCC1CN(Cc2cc3c(cc2Cl)OCO3)CCN1Cc1ccccc1 (centres undefined),1.8,4%,0.0,0.72,-2.6,i,4.0
CCC(CCCO)CCC[C@H](C)CCC1OCCO1 (some centres undefined),-5.1,.,3.2,.,.,i,10
COc1cc(/C=C/C(=O)OCC(=O)NCCC2=CCCCC2)ccc1O,3.2,-1%,0.1,0.7,-0.5,i,2.7
O=C(NC(C(=O)c1ccccc1)N1CCCCC1)c1ccccc1 (centres undefined),.,1%,2.7,0.7,-1.2,.,7.7
CCCCOC(=O)Nc1nc2ccc(OC)cc2s1,.,1%,3.4,0.65,-6.6,.,-0.8

Sorted by number of heavy atoms (falling): some entries from above
mol,MLL AF4-AF9 inh,Vif TR-FRET,UCH37 inh,E coli growth,RanGTP-Impb inh,FGF22 binding,HNF4A DNA FP
Cc1ccc([C@H]2C[C@@H](O)[C@H](n3cc(COC(=O)c4ccccc4)nn3)CN2CC2CCCCC2)cc1,-9.1,.,.,.,.,i,-2.6
OCCC1CN(Cc2cc3c(cc2Cl)OCO3)CCN1Cc1ccccc1 (centres undefined),1.8,4%,0.0,0.72,-2.6,i,4.0
COc1ccccc1NC(=O)CCN1CCN(Cc2ccccc2)CC1,3.8,-1%,2.8,0.68,0.0,i,-3.8

Other structures
mol,MLL AF4-AF9 inh,Vif TR-FRET,UCH37 inh,E coli growth,RanGTP-Impb inh,FGF22 binding,HNF4A DNA FP
CCC(=O)N/N=C(\C)CC(=O)Nc1cc(Cl)ccc1C,-3.7,-3%,.,.,4.5,i,-3.6
O=C(NCc1ccccc1Cl)C1CCN(S(=O)(=O)N2CCC3(CC2)OCCO3)CC1,1.4,0%&0%,1.3,0.71,?,i,-2.2
CC(C)OC(=O)CN1CCN(S(=O)(=O)c2cc(Cl)ccc2Cl)CC1,.,4%,3.8,0.77,.,.,-1.4
CCn1c(O)c(N=NC(=O)C2C(=O)NCC2c2ccccc2)c2ccccc21 (centres undefined),.,4%,4.5,0.71,0.2,.,0.1
CN(c1ccccc1)S(=O)(=O)c1ccc(Cl)c(C(=O)OCC(N)=O)c1,-0.3,1%,-0.8,0.65,7.3,.,-2.1
CC1=C[C@H]2Cc3cc(C)cc(C)c3S(=O)(=O)[C@@H]2C=C1,3.6,15%,1.2,0.73,-5.0,i,3.8
CCN1CCN(C(=O)CCCCCn2c(=O)[nH]c3cc(C(=O)OC)ccc3c2=O)CC1,.,1%,-43,0.69,1.2,.,0.5
Cc1cc(C)n(-c2nc3ccccc3n3nnnc23)n1,.,-2%,5.8,0.74,4.6,.,-0.1
CSc1nc(Oc2ccc(C)cc2)cc(C(F)(F)F)n1,.,0%,0.6,0.76,-1.3,.,-2.4
CCOC(=O)/N=C(/NC(=O)Nc1ccc(C(=O)OCC)cc1)OC,.,-3%,.,.,4.9,.,-1.7
CC1(C)CC(=O)C=C(OC(=O)c2ccc(Cl)cc2)C1,.,2%,1.2,0.68,6.2,.,-1.3
O=C(c1cc2c(s1)-c1ccccc1OC2)N1CCN(c2ccccc2)CC1,-0.7,-10%,-3.9,0.72,-7.7,i,2.4
O=C(N/N=C/c1c[nH]c2ccc(Br)cc12)c1ccn(Cc2ccc(Cl)cc2)n1,.,1%,.,.,-1.5,.,1.1
Cc1csc(SCC(=O)Nc2nncs2)n1,-1.8,.,-0.7,0.66,?,i,-3.0
CCCCCCn1c(N2CCN(c3cccc(Cl)c3)CC2)nc2c1c(=O)[nH]c(=O)n2C,.,18%,1.4,0.8,3.0,.,-8.7
CN(C)c1ccc(C=C(c2nnnn2-c2ccccc2)c2nnnn2-c2ccccc2)cc1,.,1%,4.8,0.76,-4.9,.,31
CSc1ccc(/C=C/C(=O)NC23CC4CC(CC(C4)C2)C3)cc1,6.6,-5%,-91,0.7,-7.4,i,1.1
COCCCNS(=O)(=O)c1ccc(SC)cc1,.,1%,-0.7,0.69,-1.6,.,-2.0
CC1CCC2(CC1)NC(=O)N(CC(=O)Nc1cccnc1Cl)C2=O (centres undefined),-0.2,-7%,-2.1,0.68,.,i,0.8
COc1ccc(C23CC4CC(CC(C(=O)O)(C4)C2)C3)c(F)c1,-0.3,-14%,0.8,0.66,?,i,0.5
COc1ccc(N(CC(=O)Nc2cccc(C)c2)S(=O)(=O)c2c(C)n[nH]c2C)cc1,.,-1%,1.3,0.69,3.0,.,-7.2
Cc1cc(C)c(Cn2ncn(-c3ccc(Br)cc3)c2=O)c(C)c1,-1.7,11%,4.4,0.72,-2.3,i,-2.8
CCOc1ccccc1NC(=O)NCc1ccco1,1.0,?,-0.8,0.7,0.5,i,-2.5
COc1cccc(-c2c(C(=O)N/N=C(\C)c3cccs3)nnn2-c2nonc2N)c1,-5.1,.,.,.,6.4,i,1.3
COc1ccccc1-c1ccc(SCc2cccc(F)c2)nn1,-4.0,.,.,.,2.3,i,5.0
COc1ccc(C2CCCN2C(=S)Nc2ccc(C)cc2C)cc1OC (centres undefined),6.8,1%,4.4,0.65,4.2,i,0.6
Cc1ccc(S(=O)(=O)NCC(=O)OCC(=O)NC(=O)c2cccn2C)cc1,-7.6,4%,3.6,0.63,?,i,6.4
NCCCC[C@@H]1NC(=O)c2cc([N+](=O)[O-])cc(F)c2NCCCC[C@@H](C(N)=O)NC(=O)CNC1=O,42*,5%,5.0,.,0.7,i,16
Nc1[nH]c(C(=O)c2ccccc2)c(-c2ccccc2C(F)(F)F)c1C(=O)c1cccs1,-1.1,.,.,.,.,i,10
CCOC(=O)C1CCN(S(=O)(=O)c2ccc(OCC)cc2)CC1,.,-1%,-4.1,0.72,-3.4,.,0.7
Cc1cc(NC(=O)CCC(=O)N(CC(=O)NCC2CCCO2)c2cccc(F)c2)no1 (centres undefined),6.4,.,-3.0,0.68,1.6,i,-2.4
O=C(NC1CCCCC1)C1c2ccccc2OCC(=O)N1Cc1ccc2c(c1)OCO2 (centres undefined),1.7,.,.,.,.,i,-1.6
COCC(=O)Nc1nc(-c2ccc(-c3ccccc3)cc2)cs1,-18,.,-2.7,0.65,5.0,i,-3.1
O=C(Cn1cnc2ccccc2c1=O)Nc1cccc(S(=O)(=O)N2CCCCC2)c1,-1.2,-2%,-1.3,0.64,-0.8,i,0.8
CN(C(=O)c1ccccc1OC1CCN(S(C)(=O)=O)CC1)C1CCOC1 (centres undefined),0.3,-6%,4.7,0.66,3.2,i,-0.2
S=C(NCc1ccccc1)NCc1cccc(CNC(=S)NCc2ccccc2)c1,-2.6,.,1.5,0.72,-2.0,i,-0.2
O=C(COC(=O)CC1CCS(=O)(=O)C1)Nc1ccc(F)cc1 (centres undefined),0.2,.,3.6,0.72,.,i,-1.2
N#Cc1ccccc1OCc1cccc(S(=O)(=O)N2CCOCC2)c1,-2.3,-13%,1.5,0.66,.,i,-0.1
CC(NS(=O)(=O)c1ccc(OCC(=O)NCc2ccncc2)cc1)c1ccccc1 (centres undefined),-0.3,.,1.9,0.7,-0.4,i,-0.7
CC(C)C(NC(=O)c1ccccc1F)C(=O)NCc1ccc(S(=O)(=O)N2CCOCC2)cc1 (centres undefined),-2.5,6%,-1.2,0.66,.,i,3.3
O=[N+]([O-])c1ccc(C(O)CN2CCN(C/C=C/c3ccccc3)CC2)cc1 (centres undefined),3.7,-2%,.,.,3.4,i,-3.0
Cn1c(Oc2ccccc2)c(C=O)c2ccccc21,.,-1%,-1.3,0.74,7.1,.,-1.6
O=C(COc1ccc2ccccc2c1)N1CCN(C(=O)c2ccc([N+](=O)[O-])cc2)CC1,0.8,-3%,4.3,0.67,0.3,i,3.2
CCc1cc2c(=O)[nH]c(COC)nc2s1,6.2,1%,0.7,0.64,2.5,i,-1.0
Cc1nn(-c2ccccc2)c2c1C(=O)N(Cc1ccccc1)C(=O)C(C)(C)C2,.,-1%,5.5,0.77,1.0,.,-0.3
Cc1cccc(CN2[C@H](COC(=O)Nc3ccccc3)C=CS2(=O)=O)c1,2.7,.,.,.,.,i,3.9
O=C(O)c1c2c(nc3ccccc13)/C(=C/c1ccc(O)cc1)CCC2,-1.0,30%,-9.9,0.7,11,i,2.5
CCN(CC)S(=O)(=O)c1ccc(N2CCCC2)c(NS(=O)(=O)c2ccc(F)cc2)c1,4.0,.,-0.9,0.69,3.3,i,-0.9
COc1ccc(C2=NOC(C(=O)Nc3c(C)n(C)n(-c4ccccc4)c3=O)C2)cc1 (centres undefined),-5.8,-5%,2.8,0.75,?,i,1.6
COc1ccc(CCNC(=O)CCCCC(=O)NCCc2ccc(OC)cc2)cc1,1.3,.,3.4,0.74,-0.4,i,2.1
COc1ccc(S(=O)(=O)N2CCC(C(=O)NCC3CCCCC3)CC2)cc1,0.8,.,5.8,0.65,?,i,5.7
O=C1C2C3c4ccccc4C(c4ccccc43)C2C(=O)N1c1cccc2cccnc12 (centres undefined),.,3%,3.0,0.72,0.0,.,0.1
CCOC(=O)c1c(NC(=O)c2nn(CC)cc2Br)c(C#N)cn1-c1ccccc1,-4.6,-2%,-0.9,0.7,2.4,i,-1.4
COc1ccc(/C=N/NC(=O)c2ccn[nH]2)cc1COc1ccc(Cl)cc1,.,0%,.,.,-0.2,.,-0.3
COc1ccc(C)cc1NC(=O)CNC(c1ccccc1)c1ccc(C)cc1 (centres undefined),-2.6,-4%,3.9,0.72,3.4,i,-1.2
